# MT1-MMP act inh: blocks activation of human MT1-MMP | HT1080 RFP-PRO-GFP cells, GFP/RFP ratio fluorescence, overnight; percent of plate control window, DMSO zero | GFP/RFP ratio change, % at 20 µM | 0.061% of 360,000 active | P50281;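 active = GFP/RFP ratio change of at least 30% with cell ATP level not reduced by more than half and red fluorescence within 50% of control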; also: strong numbers were not always called active
#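 Compound: 20 µM single dose, 1% DMSO / System: HT1080 RFP-PRO-GFP cells / Controls: DMSO and RFP-L50D-GFP cell wells / Read-out basis: GFP/RFP fluorescence ratio / Schedule: overnight compound exposure at 37 °C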
# eIF4H inh: inhibitors of RNA binding by human eIF4H. Q15056. eIF4H fluorescence polarization binding assay. inhibition, % at 35 µM. 0.94% of 290,000 active;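 active = 50% or more with normal probe brightness, or confirmed in later tests; inconclusive = above 50% with abnormal brightness, or retests that disagree; inactive = below 50% or failed in later tests; about a fifth of its hits are not listed in these tables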;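 also: calls also rest on retests at 20 µM and on dose response follow-up; 0% = protein and probe with vehicle and 100% = probe without protein; strong numbers were not always called active; many hits fall short of the cut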
# UUG fidelity: alters start codon recognition fidelity in yeast | S. cerevisiae UUG-firefly luciferase reporter, luminescence/redox ratio | activity score, % at 18.7 µM | 0.13% of 350,000 active | AID 602363;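 active = replicate mean at a twofold rise or more, about +100% in these data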;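 also: firefly luciferase made from a UUG start codon reports start codon fidelity; reporter light over untreated wells divided by growth signal over untreated wells; some hits fall short of that in this replicate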
# Rce1 inhib: inhibitors of yeast Ras-converting enzyme | 0.27% of 290,000 active | yeast membranes, quenched prenylated peptide cleavage fluorescence | AID 2563 | calls only | Q03530;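 active = fall in fluorescence gain of 50% or more versus controls, with final raw signal at or below 3038400; inconclusive = same 50% fall but final raw signal above 3038400; inactive = fall in fluorescence gain under 50%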;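 also: plate controls were neutral control wells for no effect and wells lacking membranes for full effect; tested at 10 µM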
# Target sequence (Q03530 whole entry, looked up): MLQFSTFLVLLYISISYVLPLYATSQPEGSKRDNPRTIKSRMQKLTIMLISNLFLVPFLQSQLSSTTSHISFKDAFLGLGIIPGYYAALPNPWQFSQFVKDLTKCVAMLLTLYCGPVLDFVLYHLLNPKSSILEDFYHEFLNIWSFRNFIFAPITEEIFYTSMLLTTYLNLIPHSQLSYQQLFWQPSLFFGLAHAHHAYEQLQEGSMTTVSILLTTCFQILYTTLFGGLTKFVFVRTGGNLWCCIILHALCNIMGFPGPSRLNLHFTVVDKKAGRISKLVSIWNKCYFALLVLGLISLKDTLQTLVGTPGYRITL
# HIV Env fusion: blocks HIV Env-driven cell-cell fusion. HeLa-JRFL Env/CEM21 cell fusion, luciferase. inhibition, % at 12.3 µM. 1.1% of 360,000 active. AID 651610;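 active = mean replicate inhibition score of at least 50 and every replicate individually at or above 50; inconclusive = only one of the two criteria met; inactive = mean below 50 and not all replicates reaching 50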;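 also: 0% = plate neutral controls and 100% = maraviroc near 300 nM; one replicate is shown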
# PABP polyA inh: blocks human PABP binding to poly(A) RNA. fluorescence polarization. inhibition, % at 35 µM. AID 2014. 1% of 290,000 active;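 active = 50% or more with normal probe brightness, or confirmed in later tests; inconclusive = above 50% with abnormal brightness, or retests that disagree; inactive = below 50% or failed in later tests; about a fifth of its hits are not listed in these tables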;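 also: calls also rest on retests at 20 µM and on dose response follow-up; controls were probe without protein and protein plus probe with vehicle; some compounds called inactive have numbers as strong as hits; many hits fall short of the cut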
# CSC inhib: cancer stem cell inhibition | cancer stem cell-like cells viability, luminescence | inhibition, % at 7.5 µM | 1.1% of 300,000 active;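 active = mean at 75% or more and at least half the replicates too; inconclusive = mean and replicates disagree; tested in HMLE shEcad cells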;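 also: 0% = median of negative and 100% = median of positive control wells; the first replicate is given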
# PABP polyA inh retest: recorded beside PABP polyA inh, whose call it bears; inhibition, %; compound at 20 µM; confirmation repeats;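 mean of two retest wells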
# MT1-MMP act inh RFP: also measured in MT1-MMP act inh; calls as there; RFP signal change, %; measured here: RFP expression control read;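 0 = vehicle wells; hits needed this value within 50% of zero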
# * hit, by the source's call; i = inactive; ? = inconclusive; · = no result given; & = joins results of further samples; [ ] = another dose, or the depositor's remark.
SMILES,MT1-MMP act inh,MT1-MMP act inh RFP,eIF4H inh,UUG fidelity,Rce1 inhib,HIV Env fusion,PABP polyA inh,CSC inhib,others
COc1ccc(F)c(CN2CCN(CCc3ccccc3)C(CCO)C2)c1 (centres undefined),·,·,2,14,i,11,-3,·,
c1ccc(NCc2ccncc2)cc1,-1,-1,-15,-15,i,-21,0,-10,
Cn1c(=O)c(=O)n(C)c2cc(S(=O)(=O)N3CCC(Cc4ccccc4)CC3)ccc21,-8,-3,0,-8,i,-88,-3,5,
COc1ccc(CCN2C(=O)C(Oc3ccccc3C)C2c2ccc3c(c2)OCO3)cc1 (centres undefined),-16,-21,-4,-1,i,·,-2,30,
Cc1ccc(OCCOc2ccc(Cl)cc2Cl)c([N+](=O)[O-])n1,2,-5,5,·,i,-4,3,8,
COc1ccc(Cn2c(C)nc3ccc([N+](=O)[O-])cc3c2=O)cc1,-2,-4,-3,-4,i,2,22,-8,
COc1ccc2nc3oc(C(=O)NCc4cccs4)cc3cc2c1,0,-7,14,-15,i,·,-15,17,
C=CCn1c(=O)c(C(=O)Nc2cc(C)ccn2)c(O)c2ccccc21,0,1,-1,-8,i,-6,8,11,
O=C(c1ccc2[nH]c(=O)c(=O)[nH]c2c1)N1CCN(c2ccccc2)CC1,-1,1,-6,8,i,-3,1,-7,
CCc1cccc(NC(=O)c2ccc(CNc3c(N4CCCC4)c(=O)c3=O)cc2)c1,-1,-4,-7,-4,i,24,-7,-10,
Cc1ccc(C)c(NC(=S)NNC(=O)c2csc(C)c2C)c1,5,5,12,·,i,8,-4,-1,
COc1cccc(C(c2nnnn2Cc2ccc(F)cc2)N2CCC(C(N)=O)CC2)c1OC (centres undefined),4,-2,-3,-12,i,·,13,9,
CCn1c2ccccc2c2cc(C3N=C(N)Nc4nc5ccccc5n43)ccc21 (centres undefined),-1,0,-3,-9,i,1,-24,-4,
Cc1ccc(-n2nc3c(n2)/C(=N/O)CC/C3=N\O)cc1,-6,-7,-7,-26,i,-27,-20,10,
CCn1c(=O)c(CCC(=O)N2CCN(c3ccccn3)CC2)c(C)c2c(C)nn(-c3cccc(C)c3)c21,-6,-9,1,-11,i,58*,0,5,
COc1ccc(-c2csc3nc[nH]c(=O)c23)cc1OC,0,0,-6,-16,i,-9,4,12,
COc1cc(/C=C2/SC(=S)N(CC(=O)NNC(=O)c3ccc(F)cc3)C2=O)cc(OC)c1OC,-2,3,·,-23,·,-14,·,·,
COc1ccc(N2CCN(C(=O)c3ccc(CNS(=O)(=O)c4cc(C)ccc4C)cc3)CC2)cc1,2,-17,-6,25,i,23,-2,9,
Cc1nn(C)cc1NC(=O)c1nn(C)cc1[N+](=O)[O-],1,-1,5,-3,i,·,-3,-3,
O=C(Cc1cccc(NC(=O)C2CCCN(C(=O)C3CCCCC3)C2)c1)Nc1ccc(C(=O)N2CCCCC2)cc1 (centres undefined),-1,-1,·,-15,·,1,·,·,
CCc1ccccc1N1CC(C(=O)N2Cc3ccccc3CC2C(N)=O)CC1=O (centres undefined),2,1,·,·,·,1,·,-17,
COCCNC(=S)N1CCc2cc(OC)c(OC)cc2C1c1cccs1 (centres undefined),2,0,6,-12,i,13,2,-3,
Cc1cccc2cc(C(c3nnnn3Cc3ccccc3)N3CCN(c4ccccc4)CC3)c(=O)[nH]c12 (centres undefined),-3,1,-6,-13,i,9,12,-1,
COCC(=O)Nc1nc2n(n1)C(c1ccccc1)CC(c1ccc(OC)cc1)N2 (centres undefined),-12,-4,-9,-20,i,-17,3,-19,
Cc1ccc(C(=O)N/N=c2\oc3ccccc3cc2C(N)=O)cc1,2,0,-9,-4,i,-18,4,5,

# Next section (2 carried over from the part before).
SMILES,MT1-MMP act inh,MT1-MMP act inh RFP,eIF4H inh,UUG fidelity,Rce1 inhib,HIV Env fusion,PABP polyA inh,CSC inhib,others
COCC(=O)Nc1nc2n(n1)C(c1ccccc1)CC(c1ccc(OC)cc1)N2 (centres undefined),-12,-4,-9,-20,i,-17,3,-19,
Cc1ccc(C(=O)N/N=c2\oc3ccccc3cc2C(N)=O)cc1,2,0,-9,-4,i,-18,4,5,
O=[N+]([O-])c1ccc(SCc2ccncc2)nc1,2,1,-1,-17,i,-8,19,-2,
O=C(COc1ccc(-n2ccnc2)cc1)Nc1cccc(F)c1,-4,-24,-6,-1,i,0,-6,-4,
CCc1ccc(NC(=O)CS(=O)CC(=O)NCC2OCCc3ccccc32)cc1 (centres undefined),1,1,12,-33,·,-59,3,-5,
COc1ccccc1CN1CC(C(=O)N(C)CCc2ccccn2)CCC1=O (centres undefined),3,2,·,-8,·,14,·,·,
COc1ccc(/C=N/NC(=O)c2nnn(-c3nonc3N)c2C)cc1OC,2,4,·,-5,·,11,·,·,
CN(Cc1nc(-c2ccc3c(c2)OCO3)no1)CC1(N2CCOCC2)CCCCC1,0,-3,0,-15,i,5,5,-7,
O=C(COC(=O)c1c2ccccc2cc2ccccc12)NCC(F)(F)F,1,0,-14,-25,i,-27,16,24,
COC(=O)c1ccc(Cn2cnc3c(sc4nc(N5CCOCC5)c5c(c43)CCCC5)c2=O)o1,-6,-8,1,-37,i,·,-10,-13,
CC(C)CNC(=O)COC(=O)C1c2ccccc2Oc2ccccc21,1,1,1,8,i,9,0,5,
COc1ccccc1-n1c(C)cc(/C=C2\C(=N)N3N=C(CC(=O)N4CCOCC4)SC3=NC2=O)c1C,-4,3,4,5,i,5,4,14,
CC(C)NC(=O)NC(=O)CN1C(=O)NC2(CCc3ccccc3C2)C1=O (centres undefined),1,1,-14,-5,i,9,0,-6,
Cc1ccc(C(=O)NNC(=O)c2cccs2)cc1,-3,-2,-4,·,i,-13,1,-3,
CSc1ncccc1C(=O)OCC(=O)c1ccc(Cl)s1,-1,0,·,-5,·,2,·,·,
CC(=O)c1cccc(NC(=O)CC(C)n2ccnc2)c1 (centres undefined),0,0,2,-20,i,-3,0,-18,
COCCNC(=O)CN1C(=O)NC2(CCOc3ccccc32)C1=O (centres undefined),1,4,42,-20,i,-11,49,0,
Cc1cc(C(=O)CSc2nnnn2-c2ccc(Cl)cc2)c(C)n1CC1CCCO1 (centres undefined),3,5,1,-16,i,·,7,3,
COCCn1cnnc1SCC(=O)Nc1sccc1C(N)=O,3,2,9,·,i,-2,20,-6,
COc1ccc(N2CCN(C(=O)c3ccc(CS(=O)c4cccc(C)c4)o3)CC2)cc1 (centres undefined),-2,-2,-4,16,i,10,12,-5,
Cn1nc(-c2ccc(C(=O)N3CCN(CCO)CC3)cc2)c2ccccc2c1=O,-1,1,3,-6,i,-49,11,-1,
CN1CCN(C(c2cccc(Cl)c2)c2ccccc2Cl)CC1 (centres undefined),-16,-10,2,·,i,-3,-18,-2,
Cc1ccc(NC(=O)CSc2nnc(C3COc4ccccc4O3)o2)c(Cl)c1 (centres undefined),-3,-2,1,·,i,-123,-3,-24,
CCOCc1nc(N)[nH]c(=O)c1Cc1ccc(OC(C)C)cc1,4,1,4,-24,i,·,-2,-7,
CCOc1cc(S(=O)(=O)NCc2ccccc2)ccc1Br,-5,2,-3,-19,i,22,-12,·,
Cc1ccc(Cn2nc(C)c(NC(=O)CCCn3nc([N+](=O)[O-])c(Cl)c3C)c2C)cc1,6,-1,-18,-4,i,-4,-13,1,
CC(C)NC(=O)N(C)C[C@H]1Oc2ccc(NC(=O)Cn3cnnn3)cc2C(=O)N([C@H](C)CO)C[C@@H]1C,3,8,·,-2&-4,·,9[16.7 µM],·,-7,

# 4 entries out of the list, ordered by formula weight, highest first.
SMILES,MT1-MMP act inh,MT1-MMP act inh RFP,eIF4H inh,UUG fidelity,Rce1 inhib,HIV Env fusion,PABP polyA inh,CSC inhib,others
CC(C)NC(=O)N(C)C[C@H]1Oc2ccc(NC(=O)Cn3cnnn3)cc2C(=O)N([C@H](C)CO)C[C@@H]1C,3,8,·,-2&-4,·,9[16.7 µM],·,-7,
COc1ccccc1CN1CC(C(=O)N(C)CCc2ccccn2)CCC1=O (centres undefined),3,2,·,-8,·,14,·,·,
CC(C)CNC(=O)COC(=O)C1c2ccccc2Oc2ccccc21,1,1,1,8,i,9,0,5,
Cc1ccc(-n2nc3c(n2)/C(=N/O)CC/C3=N\O)cc1,-6,-7,-7,-26,i,-27,-20,10,

# Following part.
SMILES,MT1-MMP act inh,MT1-MMP act inh RFP,eIF4H inh,UUG fidelity,Rce1 inhib,HIV Env fusion,PABP polyA inh,CSC inhib,others
CCOC(=O)c1ccc(N2CCOCC2)c(NC(=O)c2c(-c3ccccc3)noc2C)c1,-3,-14,-4,-8,i,5,5,53,
O=C(O)C1CC=CCC1C(=O)NCCc1cccc(Cl)c1 (centres undefined),7,2,6,-11,i,·,5,·,
Cc1ccc(NC(=O)CC2NCCN(Cc3ccccc3)C2=O)cc1 (centres undefined),-3,0,-12,-23,i,14,2,3,
O=C(CC1NCCc2ccccc21)Nc1ccc(Oc2ccccc2)cc1 (centres undefined),-4,-2,-17,-10,i,20,-2,95*,
CCN(CC)S(=O)(=O)c1ccc(-c2csc(C)n2)s1,-1,-1,-4,-1,i,0,9,-9,
CC(=O)Nc1ccc(SC[C@H](CC(C)C)N2CCN(CCc3ccccc3)CCC2=O)cc1,2,-2,-10,-7,i,-10,14,12,
O=C(O)c1ccc(Nc2nc(-c3ccccc3)cs2)cc1,1,-1,4,·,i,-59,10,0,
CCCC(=O)NCCCCNC(=O)CCC,-3,-1,-7,-11,i,·,-4,-13,
O=C(Cn1ncc2c([nH]c3ccccc32)c1=O)Nc1ccc(CN2CCCCC2)cc1,-6,2,2,-23,i,·,-10,-9,
CCN(CC(=O)Nc1c(F)cccc1F)C(=O)c1ccc(S(=O)(=O)N(CC)c2ccccc2)cc1,-1,-1,·,-6,·,9,·,·,
Cc1ccc(NC(=O)c2ncn[nH]2)cc1,2,4,-3,·,i,-11,7,-1,
Cc1ccccc1C(=O)Nc1cc(NC(=O)c2ccccc2C)cc(C(=O)O)c1,2,2,-6,-12,i,-15,5,-7,
COc1cccc(-c2cnc3c(NC(C)=O)cc(-c4ccccc4OC)cn23)c1,3,-3,·,-2,·,21,·,·,
Cc1cc(NC(=O)c2cncc(Br)c2)no1,3,3,-5,-19,i,-3,0,·,
C=CCSc1nc2ccccc2n1S(=O)(=O)c1ccc(Cl)cc1,6,4,·,5,i,·,·,1,
CC(C)OC(=O)CC1=NC(=O)CS1,6,6,-9,-5,i,·,-6,-7,
CCCc1c(NC(=O)Nc2ccc(F)cc2)cnn1-c1ccccc1,10,4,2,·,i,-23,0,42,
COc1ccc(CC(=O)Nc2ccccc2C(=O)N2CCOCC2)cc1,0,0,2,·,i,·,-17,-8,
CCN1CCN(c2ncc(C(=O)Nc3cc(Cl)ccc3OC)c3ccccc23)CC1,-9,-15,-1,-1,i,·,-1,-18,
Cc1ccc(S(=O)(=O)N2CCC(CN3C(=O)c4cccc5cccc(c45)C3=O)CC2)cc1,1,-7,-7,-5,i,·,-16,3,
CCOC(=O)C1CCN(C2=NC(=O)/C(=C/c3ccc(OC)c(OC)c3)S2)CC1,3,1,-9,-7,i,14,-1,-14,
COc1ccc(C(=O)N/N=C/c2cccc3cccnc23)cc1,-1,-1,12,8,i,·,0,-3,
C[C@@H](OC(=O)N1CCCCC1)[C@H]1O[C@]2(C)CCCC[C@H]1O2,-4,-3,·,-30,·,-9,·,-6,
Cc1cccn2c(CN(C)CC3CCCCO3)c(C(=O)N3CCCCC3)nc12 (centres undefined),-1,4,-14,·,i,8,6,-10,
COc1ccc(CCn2c(=N)c(S(=O)(=O)c3ccc(C)cc3)cc3c(=O)n4ccccc4nc32)cc1,-8,-5,?,-8,i,41,28*,-14,PABP polyA inh retest=128*

# High-throughput results from PubChem.
